PrP 5UTR inh = inhibition of PrP 5' UTR reporter expression. inhibition, % (no concentration beside the values). hit rate 0.35% among 340,000. cell-based PrP 5' UTR mRNA reporter, plate reader;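 active means every replicate at 50% or more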;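 further: 0 = median of the neutral control wells; tested in H4 reporter cells; numbers are from one replicate; inactives centre near -14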
BJeLR lethal = MLPCN primary cell-based screen for lethality selective to Ras in HRASV12 cells; inhibition, % (no concentration beside the values); BJeLR (HRASV12) viability, CellTiter-Glo ATP luminescence, 48 h; reference of the scale not given here; AID 1554, 2009; hit rate 0.17% among 300,000;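 active means replicate mean above 50%; inconclusive means above 50% but judged a plate artefact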;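 further: 50 nL library stock added to about 25 µL; numbers are from one replicate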
Mtb hypoxia rep = PubChem AID 1159583; hit rate 0.1% among 300,000; fluorescence inhibition, % (no concentration beside the values); M. tuberculosis hypoxia-regulated fluorescent reporter, fluorescence;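 active means 35 to 45% if threefold the growth effect, above 45% if 1.5-fold the growth effect; inactive means the rest, general growth blockers included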;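 further: wells of about 50 µL received 100 nL stock; 0% = vehicle wells and 100% = reference inhibitor wells; whole bacteria with a GFP reporter of the hypoxia response; strong numbers were not always called active; many hits fall short of the cut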
Sa RN4220 lethal = growth inhibition of S. aureus RN4220, primary screen, OD600; 16 h; hit rate 0.33% among 330,000; inhibition, % (concentration not given with the values);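 active means z-score of -3 or lower and OD600 up to 0.18 on both plates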;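 further: plate controls were untreated cells for no effect and reference antibiotic for full effect; stock transfer was 100 nL into about 80 µL; one replicate is shown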
Bead autofluor = flagged as autofluorescent in microsphere protease counterscreen; AID 624483; compound autofluorescence counterscreen, microsphere flow cytometry; stronger effect = higher value; fluorescence intensity (concentration not given with the values); hit rate 3.1% among 360,000;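 active means at least 3 SD above the mean of all compounds, about 16000 in these data; inconclusive means too few beads counted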;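 further: 100 nL of 1 mM stock went into each well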
Sa ugtP lethal = growth inhibition of ugtP-null S. aureus, primary screen, RN4220 ugtP deletion, OD600; growth inhibition, % (test concentration not listed); 16 h; some inactives read as strong as hits; AID 1259309, 2017; hit rate 0.54% among 330,000;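 active means z-score under -3 and OD600 up to 0.15 on both plates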;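 further: plate controls were untreated wells for no effect and antibiotic for full effect; wells of about 80 µL received 100 nL stock; the first replicate is given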
Mtb hypoxia rep growth = recorded beside Mtb hypoxia rep, whose call it bears; growth inhibition, %; measured here: M. tuberculosis growth (absorbance);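 0% = vehicle and 100% = reference antibiotic; read after six days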
* = called active by the depositor; ? = inconclusive; nt = not tested or not shown.

SMILES | PrP 5UTR inh | BJeLR lethal | Mtb hypoxia rep | Mtb hypoxia rep growth | Sa RN4220 lethal | Bead autofluor | Sa ugtP lethal
Cc1nc2c(-c3ccccc3)c(C)nn2c(C)c1CC(=O)O | -8 | -19 | nt | nt | 13 | 2268 | 4
COc1ccc(S(=O)(=O)N2CCCCC2)cc1NC(=O)Cc1sc(C)nc1-c1ccc(F)cc1 | -26 | 1 | -13 | -5 | -1.1 | 4215 | 0
CC(NC(=O)/C(C#N)=C/c1ccc(N2CCOCC2)cc1)c1ccccc1 (configuration not stated) | -16 | -7 | 0 | 0 | -0.9 | 3904 | -2
COc1ccc(CCC(=O)NCCc2cn3c(C)csc3n2)cc1 | -12 | 3 | 5 | 8 | -7.8 | 6447 | -7
COC(=O)c1oc2ccc(Br)cc2c1NC(=O)CN1CCN(C)CC1 | -1 | 0 | 11 | 17 | 0.1 | 2563 | 76
CC(C)CC(NC(=O)c1nc[nH]c1C(=O)NCC(=O)OC(C)(C)C)C(=O)OC(C)(C)C (configuration not stated) | nt | nt | -3 | 4 | 1.2 | nt | 1
O=C(NCCF)C1CC1C(NP(=O)(c1ccccc1)c1ccccc1)c1ccccc1 (configuration not stated) | nt | nt | 2 | 0 | 1.9 | nt | -11
COc1ccc(OCCCC(=O)OC(C)C(=O)Nc2ccccc2[N+](=O)[O-])cc1 (configuration not stated) | -8 | 0 | 8 | 3 | 3.9 | 3943 | 3
O=C1c2ccccc2C(=O)N1CCSc1nncs1 | -12 | -5 | 8 | 12 | 5.0 | 10027 | 6
O=C(CSc1nnc(C2CC2)n1-c1ccccc1)NCCc1ccccc1 | -8 | 7 | nt | nt | -1.7 | 2127 | 3
CC(=O)c1ccc(OCCCN2CCCCC2)cc1 | -34 | 3 | 2 | 5 | 6.4 | 8666 | 0
N#CC(=C1CCCC1)c1nc(-c2ccc(Cl)cc2)cs1 | -94 | 11 | 9 | -3 | 4.3 | 2879 | -8
CC(=O)NC12CC3CC(C1)CC(C(=O)N(C)CC(=O)Nc1ccc(F)c(F)c1F)(C3)C2 | -3 | nt | 5 | -1 | 0.5 | 6374 | 3
COc1ccc2c(c1)[nH]c1c(=O)n(CCc3cnc[nH]3)cnc12 | -17 | -4 | 6 | 8 | 5.0 | 8387 | -1
COc1ccc(CCNC(=O)C2CCN(S(C)(=O)=O)CC2)cc1OC | 0 | -7 | 19 | 4 | 4.7 | 7808 | 0
COc1ccc(NS(=O)(=O)c2cc(NC(=O)c3ccc(=O)[nH]c3)ccc2N2CCOCC2)cc1 | -21 | -6 | -7 | 0 | 3.1 | 3586 | 9
O=[N+]([O-])c1cc(Cl)c2cccnc2c1O | -21 | 6 | 10 | -1 | 99* | 4940 | 100*
CC1CCN(C(=S)NC2CC3CCC2C3)CC1 (configuration not stated) | -29 | -6 | nt | nt | 1.5 | 2578 | 12
CCOC(=O)C1CCC(CN(Cc2ccccc2)S(=O)(=O)c2ccc([N+](=O)[O-])cc2)CC1 (configuration not stated) | -22 | 10 | -7 | 10 | -5.4 | 2376 | 1
COc1ncnc(-c2ccccc2)c1-c1ccccc1 | -17 | -1 | 7 | 5 | 1.3 | 5390 | 17
CCOc1cc(C(=S)N2CCOCC2)ccc1OS(=O)(=O)c1ccc(OC)cc1 | -32 | -7 | 8 | 1 | 9.8 | 3653 | -3
COC(=O)C1=C(c2ccccc2OCc2ccccc2)CC2CCC1N2C(=O)NCc1ccccc1 (configuration not stated) | nt | nt | 4 | 2 | -5.7 | nt | 6
CC(=O)N(CCP(=O)(c1ccccc1)c1ccccc1)Cc1ccco1 | -19 | nt | nt | nt | 0.7 | 4278 | -2
CC(C)c1nnc(SCC(=O)NC2CCCC2)n1C | 3 | -3 | -1 | 5 | 5.9 | 5631 | 10
CC(NC(=O)[C@@H](C)NC(=O)[C@@H]1Cc2ccccc2CN1C(=O)OC(C)(C)C)c1ccccc1 (some centres not stated) | -5 | -1 | 0 | 4 | -0.9 | 5917 | 1
COc1ccccc1CC(=O)N1CCN(c2cccc(Cl)c2)CC1 | -29 | -18 | 8 | 5 | 1.8 | 4893 | 15
COc1ccc(C(=O)NCCNC(=O)c2cc(OCC(F)(F)F)ccc2OCC(F)(F)F)cc1 | 1 | -6 | 24 | -17 | -14 | 3017 | -6
CC(=O)Nc1cc(C(=O)N2CCOCC2)ccc1S(=O)(=O)c1ccc(C)cc1 | -20 | -3 | 7 | -1 | 3.1 | 3022 | -2
CSC1=NC(C)N2C(SC)=NC(C)N12 (configuration not stated) | -20 | 9 | -5 | -2 | 2.8 | 5382 | 6
O=C(NCc1ccco1)c1cc(C(=O)C2CC2)c[nH]1 | -20 | -14 | 10 | 9 | 6.5 | 21145* | 0
COc1ccc(NC(=O)Cn2cc(C(C)=O)c3ccccc32)cc1 | -15 | 4 | -5 | -4 | -0.3 | nt | 0
COc1cc(C)c(/C=C/C(C)=C/C=C/C(C)=C/C(=O)O)c(C)c1C | -14 | 6 | nt | nt | nt | 5888 | nt
CC(=O)N1CCc2cc(S(=O)(=O)C(C)CC(=O)NCc3ccc(C)o3)ccc21 (configuration not stated) | -4 | 4 | 0 | 3 | -3.5 | 5525 | 8
O=C(Cc1ccsc1)NCc1ccccc1F | -13 | 0 | 2 | 8 | -3.3 | 4668 | 0
CCc1nnc(NC(=O)CSc2nnc(-c3ccccc3OC)n2-c2ccccc2)s1 | -12 | -12 | 8 | -2 | 16 | 9310 | 3
Cc1cccc(OCC(=O)NN2C(=O)C3C4C=CC(O4)C3C2=O)c1 (configuration not stated) | -28 | 7 | 2 | 0 | -0.7 | 4757 | 5
O=C(CSc1ccccc1)NN=Cc1ccccc1O | nt | nt | -6 | 4 | 3.5 | nt | -2
COc1cc([N+](=O)[O-])cc(C=NNC(=O)c2ccc(NC(=O)c3ccc(C)cc3)cc2)c1O | nt | nt | 8 | 11 | 11 | nt | 6
COc1ccc(-c2sc(Nc3ccccc3)n[n+]2-c2ccc(F)cc2)cc1Br | -19 | 13 | -2 | 9 | -1.6 | 3419 | 1
NCCCNc1nc(N)c([N+](=O)[O-])c(NC2CCCCC2)n1 | -64 | 5 | nt | nt | nt | 4387 | nt

3 compounds already listed, ordered by SMILES length, low to high.
SMILES | PrP 5UTR inh | BJeLR lethal | Mtb hypoxia rep | Mtb hypoxia rep growth | Sa RN4220 lethal | Bead autofluor | Sa ugtP lethal
O=C(CSc1ccccc1)NN=Cc1ccccc1O | nt | nt | -6 | 4 | 3.5 | nt | -2
NCCCNc1nc(N)c([N+](=O)[O-])c(NC2CCCCC2)n1 | -64 | 5 | nt | nt | nt | 4387 | nt
CC(NC(=O)[C@@H](C)NC(=O)[C@@H]1Cc2ccccc2CN1C(=O)OC(C)(C)C)c1ccccc1 (some centres not stated) | -5 | -1 | 0 | 4 | -0.9 | 5917 | 1

Next section:
SMILES | PrP 5UTR inh | BJeLR lethal | Mtb hypoxia rep | Mtb hypoxia rep growth | Sa RN4220 lethal | Bead autofluor | Sa ugtP lethal
CCN(CC)S(=O)(=O)c1cccc(C(=O)NCc2ccccc2)c1 | -12 | 1 | 14 | 4 | -4.0 | 4235 | 6
CC(C)OC(=O)CC(=O)CSc1nc2c(cc1C#N)CCCC2 | -22 | 6 | nt | nt | 1.8 | 2549 | 0
O=C(CSCCO)Nc1cccc2ccccc12 | -9 | 9 | 6 | 10 | 1.9 | 22778* | -2
O=C(O)COc1ccccc1C1C2C(=O)N(c3ccc(F)cc3)C(=O)C2ON1c1ccccc1 (configuration not stated) | -3 | 0 | nt | nt | -0.9 | 2713 | 2
CCS(=O)(=O)N1CCC(C(=O)Nc2cc(C)ccc2O)CC1 | -7 | -2 | -6 | 8 | 1.0 | 3779 | -6
N#Cc1ccc(C(=O)Nc2cccc(NC(=O)c3ccco3)c2)c(F)c1 | -7 | -17 | 11 | -1 | -1.4 | 4058 | 7
COc1ccc2c(c1OC)C(=O)N1N=C(c3ccccc3)CC21 (configuration not stated) | -13 | 2 | 14 | 9 | 9.0 | 3203 | 5
CNC(=S)N(Cc1ccc(OC)cc1)C1CC(=O)N(c2ccc(Cl)cc2)C1=O (configuration not stated) | -6 | 7 | -13 | 1 | 4.4 | 3248 | -12
CCc1nc(NCC2CCCN2CC)c2nnn(Cc3ccccc3F)c2n1 (configuration not stated) | -1 | 1 | nt | nt | 3.6 | 4222 | 12
Oc1ccccc1Oc1ncc(Br)c(N2CCOCC2)n1 | -1 | -1 | 3 | -2 | 0.6 | 3119 | -5
Cc1ccc(CNC(=O)c2ccc(Cn3cc(-c4ccc(C)cc4)nc3-c3ccncc3)cc2)cc1 | -49 | 2 | -1 | 10 | -0.7 | 4116 | 7
COc1cc(S(=O)(=O)NC2CCCCC2)c(C)cc1C | -26 | 0 | 6 | 5 | 2.3 | 4753 | -6
COc1ccccc1C(=O)Nc1ccc2c(c1)CC1(C(=O)N(C)C(=O)N(C)C1=O)C1CCCN21 (configuration not stated) | -51 | 8 | nt | nt | nt | 5117 | nt
CC(=O)c1sc(-c2cccc(Cl)c2)nc1C | -43 | 0 | 6 | 5 | 15 | 4646 | 10
COc1ccc(NC2=C(Cl)C(=O)N(CCc3ccccc3)C2=O)cc1 | -28 | -4 | 4 | 7 | -0.7 | 2233 | 4
CCCC(=O)Nc1ccc2oc(-c3ccc(OC)c(Br)c3)nc2c1 | -35 | 0 | 2 | 2 | 1.0 | 21634* | -6
CCCCNC(=O)c1onc(CS(=O)(=O)c2ccccn2)c1C(=O)NCCCC | -4 | nt | 12 | 3 | 1.0 | 3108 | -17
Cc1ccc2nc3c(cc(C(=O)NCCN4CCOCC4)c(=N)n3CCCN3CCOCC3)c(=O)n2c1 | -38 | -4 | nt | nt | nt | 5674 | nt
CCSc1ncc(/C=N/Nc2ccc(F)cc2)n1C | -15 | 4 | nt | nt | nt | 4513 | nt
COc1ccc(Cl)cc1NC(=O)c1[nH]c(C)c(C(C)=O)c1C | -18 | 5 | nt | nt | nt | 4594 | nt

Some entries already given with just Mtb hypoxia rep, Sa ugtP lethal and BJeLR lethal.
molecule	Mtb hypoxia rep	Sa ugtP lethal	BJeLR lethal
CNC(=S)N(Cc1ccc(OC)cc1)C1CC(=O)N(c2ccc(Cl)cc2)C1=O (configuration not stated)	-13	-12	7
CCc1nc(NCC2CCCN2CC)c2nnn(Cc3ccccc3F)c2n1 (configuration not stated)	nt	12	1
Oc1ccccc1Oc1ncc(Br)c(N2CCOCC2)n1	3	-5	-1
Cc1ccc(CNC(=O)c2ccc(Cn3cc(-c4ccc(C)cc4)nc3-c3ccncc3)cc2)cc1	-1	7	2
COc1cc(S(=O)(=O)NC2CCCCC2)c(C)cc1C	6	-6	0

The list continues.
SMILES | PrP 5UTR inh | BJeLR lethal | Mtb hypoxia rep | Mtb hypoxia rep growth | Sa RN4220 lethal | Bead autofluor | Sa ugtP lethal
CN(C)S(=O)(=O)c1cccc(C(=O)OCC(=O)N2c3ccccc3NC(=O)C2(C)C)c1 | -23 | 7 | 3 | 2 | 3.3 | 9498 | 2
N#CCOC(=O)C1CCN(S(=O)(=O)c2ccc3c(c2)OCCO3)CC1 | -10 | -10 | 6 | -8 | 1.1 | ? | -1
c1ccc2c(c1)OCC(CNc1ncnc3sccc13)O2 (configuration not stated) | -22 | 8 | nt | nt | nt | 2950 | nt
CC(C)(C)OC(=O)CNC(=O)c1nc[nH]c1C(=O)N1CCc2ccccc2C1 | -12 | 11 | 8 | 11 | 10 | 4011 | 5
O=C(Nc1ccc(F)cc1)c1oc2ccccc2c1NC(=O)C1CCCC1 | -11 | -2 | 7 | -1 | 7.2 | 11256 | -2
N#Cc1c(NC(=O)c2ccc([N+](=O)[O-])o2)sc2c1CCC2 | -15 | 2 | 13 | 7 | 12 | 5099 | 29
Cc1ccc(N2CCN(CC(O)COc3ccc([N+](=O)[O-])cc3)CC2)cc1 (configuration not stated) | -2 | 3 | 7 | 5 | 1.5 | 5299 | 9
O=C(NNC(=O)c1ccccc1-n1cccc1)c1ccccc1 | -9 | 1 | nt | nt | 2.8 | 2777 | -9
COc1ccc(S(=O)(=O)N2CCCCCC2)cc1C(=O)N(C)Cc1cccs1 | 6 | 13 | 8 | 1 | -0.3 | ? | 3

Quoted at random: 2 records from the list, in no set order.
SMILES | PrP 5UTR inh | BJeLR lethal | Mtb hypoxia rep | Mtb hypoxia rep growth | Sa RN4220 lethal | Bead autofluor | Sa ugtP lethal
O=C(Cc1ccsc1)NCc1ccccc1F | -13 | 0 | 2 | 8 | -3.3 | 4668 | 0
CC(=O)Nc1cc(C(=O)N2CCOCC2)ccc1S(=O)(=O)c1ccc(C)cc1 | -20 | -3 | 7 | -1 | 3.1 | 3022 | -2
